# StopGo reporter: FMDV 2A StopGo reporter, luciferase signal. Potency, µM (titrated, usually from 57.9 µM), inactives show at the top dose signal change, negative = less light. 410,000 tested, 1.2% active. human cells with a luciferase reporter of 2A StopGo recoding; control for the full effect not named in the record; active = well fitted falling curve with a large enough effect; inconclusive = small, poorly fitted or top-dose-only effect; inactive = no such curve, though single readings can be large or run the other way; tested in HEK293T cells; note: % is set by controls: 0 for no effect and ±100 for the full control effect; nearly all actives have a fitted effect of over 45% in size; luciferase light after 4 h
# Cruzain Triton: inhibitors of Trypanosoma cruzi cruzain with detergent | P25779 | purified cruzain, Z-FR-AMC fluorescence, 0.01% Triton | Potency, µM, without a hit: max response, negative = inhibition, actives largely listed as inhibitors | 200,000 tested, 0.43% active | AID 1478;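 note: plate controls were neutral wells for no effect and buffer without enzyme for full effect; nearly all actives have a fitted effect of over 40% in size; top concentration of the series not given in the record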
# Target sequence (P25779 123-467 limits assumed): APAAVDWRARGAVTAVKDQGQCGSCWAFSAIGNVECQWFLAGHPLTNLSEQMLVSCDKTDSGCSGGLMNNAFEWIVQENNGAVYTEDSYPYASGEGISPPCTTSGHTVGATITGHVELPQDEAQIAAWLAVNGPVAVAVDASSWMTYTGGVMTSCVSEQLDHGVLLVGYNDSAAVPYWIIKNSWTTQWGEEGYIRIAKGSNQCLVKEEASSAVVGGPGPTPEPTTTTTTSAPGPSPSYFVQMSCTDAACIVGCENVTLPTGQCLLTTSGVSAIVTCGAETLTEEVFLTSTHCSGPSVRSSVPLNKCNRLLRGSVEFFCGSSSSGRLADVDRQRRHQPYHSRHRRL
#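 Compounds were screened in titration against cruzain (1.5 nM) with 0.01% Triton X-100 to counter colloidal aggregation. Activity was the AMC fluorescence increase over 60 s after adding 2 uM Z-FR-AMC at pH 5.5.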
# SARS PLP yeast: SARS-CoV PLP inhibition in yeast | S. cerevisiae expressing SARS-CoV PLpro, growth rescue; control for the full effect not named in the record | Potency, µM (highest dose often 32.9 µM), for the others: at the highest dose activity, positive = growth rescue | 330,000 tested, 0.19% active; active means well fitted rising curve with a large enough effect; inconclusive means small, poorly fitted or top-dose-only effect; inactive means no such curve, though single readings can be large or run the other way; note: 0% is about no effect; nearly all actives have a fitted effect of over 55% in size; growth read by luminescence after 48 h
# Lassa entry inh: blocks Lassa virus binding to or entry into cells. Lassa virus pseudotype entry inhibition, cell reporter; control for the full effect not named in the record. Potency, µM (top dose mostly 37.9 µM), inactives show at the top dose activity change, negative = inhibition, most hits filed as inhibitors. 300,000 tested, 1.2% active; active means well fitted inhibition curve with a large enough effect; inconclusive means small, poorly fitted or top-dose-only effect, or effect the other way; inactive means flat fitted curve, though single readings scatter; tested in HEK293 cells; note: % is set by controls: 0 for no effect and ±100 for the full control effect; nearly all actives have a fitted effect of over 50% in size; luciferase read-out
# NS1 function inh: inhibitors of influenza NS1 protein function. S. cerevisiae slowed by influenza A NS1, growth recovery by OD600. Potency, µM (highest dose often 46.1 µM), inactives show at the top dose activity, positive = more growth. 270,000 tested, 0.4% active; active means well fitted rising curve with a large enough effect; inconclusive means small, poorly fitted or top-dose-only effect; inactive means no such curve, though single readings can be large or run the other way; note: nearly all actives have a fitted effect of over 50% in size
#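 Recovery from NS1-induced slow growth read by OD600 in budding yeast switched to galactose assay medium (pH 6.0, -URA) at 1:100 dilution. Compound 23 nl per well; the matching strain lacking NS1 serves as control.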
# RE007 growth inh: less growth of the S. pombe RE007 Vpr strain | S. pombe RE007 Vpr strain, BacTiter-Glo ATP luminescence, 24 h; control for the full effect not named in the record | Potency, µM (series often up to 92.2 µM), inactives show at the highest dose activity change, negative = less growth | 360,000 tested, 0.21% active; active = well fitted falling curve with a large enough effect; inconclusive = small, poorly fitted or top-dose-only effect; inactive = no such curve, though single readings can be large or run the other way;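 note: % is set by controls: 0 for no effect and ±100 for the full control effect; nearly all actives have a fitted effect of over 50% in size; the assay follows cell death caused by Vpr and the record does not say whether a fall means rescue or toxicity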
#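 Fission yeast RE007 carrying one integrated HIV-1 vpr copy, seeded at OD 0.01 in PMG+AL medium with 23 nL pinned compound. Grown 24 h at 30 degrees; viability read by BacTiter-Glo luminescence after 5 min.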
# Marburg entry inh: inhibitors of Marburg virus binding or cell entry | Potency, µM (titrated, usually from 37.8 µM), for inactives: top-dose activity change, negative = inhibition, actives largely listed as inhibitors | Marburg virus pseudotyped entry inhibition, cell reporter; control for the full effect not named in the record; about a third of the inactives were read at about 46 µM | 300,000 tested, 1.8% active; active = well fitted inhibition curve with a large enough effect; inconclusive = small, poorly fitted or top-dose-only effect, or effect the other way; inactive = flat fitted curve, though single readings scatter; tested in HEK293 cells; about a fifth of its hits are not listed in these tables; note: % is set by controls: 0 for no effect and ±100 for the full control effect; luciferase read-out
# Cruzain inh noDet: inhibitors of Trypanosoma cruzi cruzain without detergent | purified cruzain, Z-FR-AMC fluorescence, no detergent | Potency, µM, inactives show max response, negative = inhibition, most hits filed as inhibitors | 200,000 tested, 2.3% active | AID 1476;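 note: plate controls were enzyme without inhibitor for no effect and buffer without enzyme for full effect; nearly all actives have a fitted effect of over 40% in size; top concentration of the series not given in the record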
#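 Purified cruzain at 1.5 nM, pre-incubated 15 min with compound at room temperature in 100 mM sodium acetate pH 5.5, 5 mM DTT, 0.00005% Triton X-100. Reaction started with 2 uM Z-FR-AMC; AMC fluorescence increase over 60 s gives rate.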
# * marks the source's active call; other numbers are inactive results; ? = inconclusive; / = not tested or not shown; & = joins results of further samples; [ ] = another dose, or the depositor's remark. Unless noted, calls come from the whole dose curve; as a rule, active = well fitted curve in the direction sought with a large enough effect; inconclusive = small, poorly fitted or top-dose-only effect, or another doubt; inactive = no such curve, though single readings can be large; an effect the other way counts as inactive or inconclusive. Potency is the fitted concentration of half-maximal effect.
SMILES,StopGo reporter,Cruzain Triton,SARS PLP yeast,Lassa entry inh,NS1 function inh,RE007 growth inh,Marburg entry inh,Cruzain inh noDet
CC(=O)Nc1cccc(C(=O)NCc2ccc3c(c2)CCN3C(=O)c2ccccc2)c1,-23%,2.5%,/,5%[46.1 µM],/,/,/,11%
CNC(=O)c1cc2c(n(-c3ccc(C)cc3)c1=O)CC(C)(C)CC2=O,-7%,-1.0%,/,2%[46.1 µM],/,/,0%[46.1 µM],2%
Cc1ccccc1OCC(=O)OCC(=O)Nc1cc(S(C)(=O)=O)ccc1Cl,6%,/,0%,-3%[46.1 µM],/,-5%,?,/
Oc1ccc(/C=N/Nc2cccc3cccnc23)c(O)c1,/,-3.2%,-28%,?,?,-7%,?,?
Cc1ccccc1C(=O)Oc1ccc(Cl)cc1C(=S)N1CCOCC1,-18%,/,-1%,13%,-7%,2%,16%,/
O=C(O)CCn1nc(-c2ccc(F)cc2)cc(Cc2ccccc2)c1=O,-14%,/,-1%,-5%,8%,-3%,-29%,/
c1ccc2c(c1)nc1sccn12,19%,1.1%,-8%,10%,-14%,0%,14%,-5%
COc1ccc(C2CC(c3ccccc3)=NN2c2ccc(Cl)c(C(=O)O)c2)cc1 (configuration not stated),22%,/,0%,5%[46.1 µM],10%,5%,-6%[46.1 µM],/
COc1ccc(-n2c(-c3ccc(Br)cc3)c[n+]3c2CCc2ccccc2-3)cc1,?,-6.6%,-28%,?,11%,3%,12µM*,1%
CCCC(=O)NC(=S)Nc1cc(-c2nc3ncccc3o2)ccc1C,-18%,/,-1%,/,-2%,0%,/,/
O=C1CC(c2ccccc2)n2nc(NC(=O)C3CCCO3)nc2N1 (configuration not stated),-4%,4.6%,-23%,-11%,5%,5%,6%,6%
CSC1=C(C#N)C(c2ccccc2Cl)C2=C(CCCC2=O)N1 (configuration not stated),/,2.0%,0%,/,-12%,/,-7%,1%
COC(=O)C(CCSC)NC(=O)c1cc2c(n(-c3ccc(C)cc3)c1=O)CC(C)(C)CC2=O (configuration not stated),1%,-7.2%,/,-4%[46.1 µM],/,/,-1%[46.1 µM],22%
CC12CC3(C)CC(C)(C1)CC(C(=O)NC1=NCCS1)(C2)C3,?,/,/,1%,/,25µM*,-25%,/
COc1ccc(NC(=O)C(=O)NCCC2CCCCN2S(=O)(=O)c2ccc(F)cc2)cc1 (configuration not stated),-28%,/,6%,?,/,39%,/,/
CC(C)Nc1nc(Cl)nc(N(C#N)CN2C(=O)c3ccccc3C2=O)n1,?,-8.0%,-15%,?,-14%,21%,2.5µM*,4%
O=C(Nc1ccc2c(c1)nc1n2CCSC1)c1ccccc1,-9%,5.2%,27%,?,-11%,-15%,?,-29%
CCN(C(=O)COC(=O)c1ccc(-n2c(C)ccc2C)cc1)c1c(N)n(Cc2ccccc2)c(=O)[nH]c1=O,-23%,/,/,-4%,/,-8%,1%,/
CC(NC(=O)COC(=O)C1CCCCC1)c1ccccc1 (configuration not stated),7%,/,-3%,-10%,/,16%,5%,/
C=C(C)c1cccc(C(C)(C)NC(=O)N2CCCC(C(N)=O)C2)c1 (configuration not stated),-29%,2.5%,6%,16%,6%,18%,22%[46.1 µM],9%
COc1ccc(S(=O)(=O)N2CCOCC2)cc1NC(=O)CSc1n[nH]c(=O)n1C1CC1,-16%,4.4%,7%,2%,0%,5%,-20%,-3%
CC(C)(C)Cc1nnc(NC(=O)c2ccc3c(c2)OCO3)s1,23%,/,0%,13%,5%,14%,12%[46.1 µM],/
CC(C)CC(=O)Nc1c2c(nn1-c1cccc(Cl)c1)CS(=O)C2 (configuration not stated),7%,/,-3%,?,6%,12%,-3%,/
CC1CCC2(CC1)NC(=O)N(CC(=O)Nc1cccc(S(=O)(=O)N3CCOCC3)c1)C2=O (configuration not stated),-7%,/,0%,/,-3%,-2%,/,/
Cc1ccc(S(=O)(=O)CCC(=O)OC(C)C(=O)c2c(C)[nH]c3ccccc23)cc1 (configuration not stated),-2%,-14%,6%,0%,-20%,-16%,-13%,20%
COc1ccc2cc(C(=O)NCc3ccc4c(c3)CCN4C(=O)c3ccccc3)[nH]c2c1,?,-0.6%,/,?,/,/,/,?
CCN1CCN(CCC(=O)Nc2cccc(C)c2)CC1,4%,/,0%,?,-8%,4%,0%[46.1 µM],/
Cc1ccc(NC(=O)C2CC3CCC2C3)c(Br)c1 (configuration not stated),55%[activator],/,1%,/,-1%,-3%,/,/
S=C1NCC(c2ccccc2)S1 (configuration not stated),13%,/,/,?,/,0%,?,/
CNc1snc(C)c1C(=O)OC(C)C(=O)NCc1ccccc1 (configuration not stated),-1%,/,0%,-4%,/,5%,-12%[46.1 µM],/
S=C(NCCNC(=S)Nc1ccccc1)Nc1ccccc1,41%[activator],/,1%,/,11%,3%,/,/
CCS(=O)(=O)N1CCc2cc(C(=O)Nc3cc(Cl)ccc3C)ccc21,0%,-3.2%,/,8%[46.1 µM],/,/,3%[46.1 µM],-6%
CCCn1c2ccccc2c2nnc(SCC(=O)Nc3c(C)n(C)n(-c4ccccc4)c3=O)nc21,?,-15%,-6%,?,2%,4%,8%,-8%
Cc1[nH]c2ccccc2c1C(C[N+](=O)[O-])c1cccs1 (configuration not stated),?,/,15%,?,/,1%,?,/
CCOC(=O)C1CCN(C(=O)COC(=O)COc2ccccc2OC)CC1,13%,3.5%,5%,0%,-4%,20%,?,1%
COc1ccc(CCNS(=O)(=O)c2cc3c4c(c2)CC(=O)N4CCC3)cc1,29%,/,-3%,/,16%,15%,/,/
O=[N+]([O-])c1ccccc1S(=O)(=O)NC1CCCC1,9%,/,0%,-12%,5%,16%,-15%[46.1 µM],/
Cc1csc(NC(=O)C2CCN(S(=O)(=O)c3ccccc3)CC2)n1,-13%,/,4%,-12%,/,2%,-24%,/
O=c1cc(CSc2nnc(-c3ccccc3)o2)c2ccccc2[nH]1,9%,-6.1%,14%,/,-6%,-3%,/,-9%
O=C(CSc1nc(O)c(C2CCCCC2)c(=O)[nH]1)N1CCOCC1,7%,/,0%,/,0%,8%,7%[46.1 µM],/
NNc1ccccc1C(F)(F)F,6%,/,1%,1%,/,22%,2%,/
CCc1cccc(C)c1NS(=O)(=O)c1c(C)nc2sccn2c1=O,-15%&-12%,-4.1%,11%,14%[46.1 µM],11%,-2%,/,1%
C=CCNc1ncnc2c1cnn2-c1ccc(C)cc1C,19%,-2.6%,-7%,/,-4%,12%,/,5%
N#Cc1cccc(CSc2nnc(CCCO)n2-c2ccccc2)c1,-19%,-1.2%,1%,-2%,-21%,-15%,11%,-3%
CCOc1cc(N2CCOCC2)c(OCC)cc1NC(=O)COC(=O)c1cc(C)cc(C)c1,?,-5.2%,24%,-8%,-7%,3%,-5%[46.1 µM],?
Cc1ccc2nc(C3CCCN(C(=O)NCc4ccccc4)C3)[nH]c2c1 (configuration not stated),33%[activator],?,0%,4%,1%,-10%,14%,6.3µM*
O=C(NCCc1nnc2ccc(SCC(=O)N3CCCC3)nn12)c1ccc(F)cc1,-12%,/,4%,/,-5%,-4%,/,/
C/C(Cl)=C\Cn1c(O)c(N=NC(N)=S)c2ccccc21,?,/,0%,-17%,-2%,-13%,10µM*,/
O=C1CCCN1CCCNc1ncccc1[N+](=O)[O-],0%,/,0%,-7%,4%,14%,10%[46.1 µM],/
COc1ccc(C2CC(=O)Nc3c2c(=O)nc2c(C)cccn32)cc1OC (configuration not stated),0%,-0.6%,/,-5%[46.1 µM],/,/,/,4%
CC(C)(C)N(C(=O)Cn1nnc(-c2ccc(F)cc2)n1)C(C(=O)NC1CCCC1)c1ccncc1 (configuration not stated),-17%,-13%,-14%,-28%,1%,15%,?,?
O=C(Nc1ccc(OC(F)(F)F)cc1)c1ccc(-n2cncn2)nc1,-21%,/,-1%,3%,2%,-9%,-6%[46.1 µM],/
CCc1cc(=O)oc2cc(C)cc(OC(C)C(=O)NCCCN3CCCC3=O)c12 (configuration not stated),-6%,/,-2%,/,-7%,-1%,/,/
O=C(NCC(O)c1ccc2ccccc2c1)c1c(F)cccc1F (configuration not stated),5%,/,1%,6%[46.1 µM],-2%,4%,0%[46.1 µM],/
Cc1ccc(C)c(OCC(=O)Nc2cccc(C(=O)O)c2)c1C,17%,-0.4%,-6%,-9%,1%,5%[3.69 µM],5%,1%
CCOc1cc(N2CCOCC2)c(OCC)cc1NC(=O)COc1cccc(Cl)c1,1%,/,-5%,-7%,/,1%,-4%,/
O=C(COc1ccc(F)cc1Cl)N1CCN(C(=O)c2cccs2)CC1,12%,/,-1%,4%,/,0%,-8%,/
CCOC(=O)CSc1nnc(CNC(=O)c2ccc(OC)c(OC)c2)n1C,18%,2.5%,?,37%[14.3 µM],-10%,10%,1%,-5%
Cc1cc(-c2ccccc2N)n[nH]1,34%[activator],-0.3%,-1%,3%,2%,-11%,28%,-3%
CC1CCN(C(c2ccccc2)c2sc3nc(-c4ccco4)nn3c2O)CC1 (configuration not stated),9%,-6.2%,/,-22%[46.1 µM],/,/,/,-11%
# Remaining list, next part
SMILES,StopGo reporter,Cruzain Triton,SARS PLP yeast,Lassa entry inh,NS1 function inh,RE007 growth inh,Marburg entry inh,Cruzain inh noDet
COc1cc(OC)c(NS(=O)(=O)c2c(C(=O)N3CCC(C)CC3)c(C)n(C)c2C)cc1Cl,25%,0.3%,/,-1%[46.1 µM],/,/,/,-11%
Cc1cc(=O)oc2cc(OCC(=O)NCCc3nc4ccccc4[nH]3)ccc12,16%,13µM*,5%,6%,14%,9%,-14%,2.5µM*
Cc1ccc(NC2=C(c3ccc(C(F)(F)F)cc3)C(=O)c3ccccc32)cc1F,?,-1.0%,/,-5%[46.1 µM],/,/,0%[46.1 µM],5%
COC(=O)c1cn(Nc2ncc(C(F)(F)F)cc2Cl)c(=O)c2ccccc12,?,-6.8%,-4%,?,10%,-11%,?,4%
O=C(NCCc1c[nH]c2ccccc12)c1cc2ccccc2oc1=O,25%,/,-21%,/,/,-26%,-26%[46.1 µM],/

# Bioassay records (PubChem BioAssay)
